Screening results (PubChem)
Beta2AR agonist – agonists of human beta-2 adrenergic receptor inducing internalization. response, % (no concentration beside the values). Am2.2-beta2AR cells, FAP receptor internalization, flow cytometry; reference of the scale not given here. hit rate 0.43% among 340,000;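 active means response above a set limit, near 3 SD of response in nonfluorescent compounds, cut at about 42% in these data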;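 further: stock transfer was 100 nL into about 11 µL; a reference agonist was the positive control; negative values mostly stem from fluorescent compounds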
Target sequence (P07550 whole entry, looked up): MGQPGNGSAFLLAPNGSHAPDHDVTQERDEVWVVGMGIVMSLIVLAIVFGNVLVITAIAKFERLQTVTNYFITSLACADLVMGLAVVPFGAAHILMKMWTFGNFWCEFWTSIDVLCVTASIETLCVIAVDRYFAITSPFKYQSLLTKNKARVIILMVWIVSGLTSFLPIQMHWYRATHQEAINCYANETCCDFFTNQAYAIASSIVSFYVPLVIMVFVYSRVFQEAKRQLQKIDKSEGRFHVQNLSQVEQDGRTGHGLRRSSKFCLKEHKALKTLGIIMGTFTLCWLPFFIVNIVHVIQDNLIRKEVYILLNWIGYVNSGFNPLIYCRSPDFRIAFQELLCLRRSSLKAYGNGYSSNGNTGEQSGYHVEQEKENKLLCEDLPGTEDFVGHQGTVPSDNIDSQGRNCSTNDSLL
Ecoli rRNA inh – inhibits bacterial ribosomal RNA function over humanized ribosomes. E. coli WT GFP vs humanized-ribosome RFP mutants, fluorescence, 24 h; hits give low values; DMSO median 0, no signal -100. hit rate 1.6% among 350,000. GFP signal change (wild-type ribosome), % (test concentration not listed);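 active means significant combined selectivity score with lowered wild-type GFP, culture density cut under 30%, mutant RFP and density less affected; inactive means any of these conditions unmet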; further: one replicate is shown; some compounds called inactive have numbers as strong as hits
ALR H2O2 inh – blocks human ALR sulfhydryl oxidase activity; purified ALR, DTT oxidation, H2O2 HRP-luminol luminescence; inhibition, % (test concentration not listed); P55789; hit rate 3.8% among 290,000;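 active means mean and each replicate at 75% or more; inconclusive means only one of the two met; inactive means neither met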;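 further: stock transfer was 7.5 nL into about 7.5 µL; 0% = neutral wells and 100% = wells with inactivated enzyme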
Target sequence (P55789 whole entry, looked up): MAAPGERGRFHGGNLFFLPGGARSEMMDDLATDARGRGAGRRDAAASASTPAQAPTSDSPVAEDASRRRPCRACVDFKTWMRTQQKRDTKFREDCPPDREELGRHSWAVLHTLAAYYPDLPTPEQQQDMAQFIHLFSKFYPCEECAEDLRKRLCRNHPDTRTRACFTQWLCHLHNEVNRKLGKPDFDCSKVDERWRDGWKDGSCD
Bfl-1 A1 inh – inhibitors of the anti-apoptotic protein A1, read as caspase activation; hit rate 0.066% among 330,000; caspase activation, % (test concentration not listed); MEF A1-2A-BIM cells, Caspase-Glo 3/7 luminescence, 3 h; percent of clofoctol response, vehicle zero;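 active means over half of replicate activation scores above 10%, or exactly half above 10 with the replicate mean above 10; inconclusive means replicate mean below 10 yet half the replicates above 10; inactive means over half of replicates below 10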;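 further: wells of about 30 µL received 50 nL stock; many hits fall short of the cut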
T cruzi repl – blocks replication of Trypanosoma cruzi. hit rate 1.4% among 300,000. T. cruzi beta-gal in NIH3T3, luminescence, 90 h. inhibition, % (test concentration not listed). AID 1885;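 active means mean inhibition across valid replicates above about 55%, limit read from the data; inconclusive means mean below that limit but half or more replicates reach it; inactive means mean below it, under half of replicates reach it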;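 further: signal also drops with host cell toxicity which is not excluded here; 0% = plate median of DMSO wells and 100% = zero luminescence signal; higher percent means less beta-gal luminescence so fewer parasites; stock transfer was 50 nL into about 50 µL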
Calb FLC – affects C. albicans growth with fluconazole. growth inhibition, % (concentration not given with the values). hit rate 0.57% among 300,000. AID 1979. C. albicans CaCi-2 (fluconazole-resistant clinical isolate) + fluconazole, Alamar Blue growth, 48 h;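 active means most replicates above 75%; inconclusive means exactly half above 75%; inactive means most below 75%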;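 further: all wells also contain fluconazole at 8 µg/ml as a sub-toxic cotreatment; 0% = median of DMSO wells and 100% = median of geldanamycin control wells; wells of about 8 µL received 7.5 nL stock; the first replicate is given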
LANA-H2A inh – blocks KSHV LANA binding to histone H2A/H2B | Q9QR71 | cell-free LANA-H2A/H2B peptide, fluorescence polarization | inhibition, % (concentration not given with the values) | hit rate 0.6% among 320,000 | AID 2629; in the data active means inhibition mostly above about 10%, no sharp cut-off; inactive means mostly below about 6.7%;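 further: stock transfer was 7.5 nL into about 10 µL; 0% = median of vehicle wells and 100% = median of positive control wells; one replicate is shown; the record names a cut of 25% in any replicate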
Beta cell apopt – beta cell apoptosis inhibition; hit rate 0.8% among 300,000; INS-1E cytokine-induced death, ATP luminescence, 48 h; percent of positive-control rescue, neutral wells zero; protection from apoptosis, % (no concentration beside the values); AID 435005;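 active means all replicates at 75% or more, or half of them and the mean; inconclusive means half reach 75% but not the mean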;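 further: 0% = cytokine-treated negative control wells and 100% = positive control rescue; higher means more ATP so stronger rescue from cytokine killing; wells of about 40 µL received 100 nL stock; the first replicate is given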
Ecoli rRNA inh OD600 – recorded beside Ecoli rRNA inh, whose call it bears; OD600 change, %; measured here: OD600 growth;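 optical density of the mix in the first replicate; 0 = DMSO median and -100 = no signal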
Ecoli rRNA inh RFP – second read-out of Ecoli rRNA inh, no call of its own (marks repeat the call); RFP signal change, %; measured here: RFP humanized mutant strains;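 first replicate; 0 = DMSO median and -100 = no signal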
Starred values were filed as active, the others as inactive; ? = inconclusive; . = no result given. The list is partial (hit frequency here may not be typical).

SMILES	Beta2AR agonist	Ecoli rRNA inh	Ecoli rRNA inh OD600	Ecoli rRNA inh RFP	ALR H2O2 inh	Bfl-1 A1 inh	T cruzi repl	Calb FLC	LANA-H2A inh	Beta cell apopt
COc1cc(/C=C/C(=O)OC2CC3CCC2(C)C3(C)C)ccc1O (configuration not stated)	27	.	.	.	?	-0.3	0	6	5.5	-2
Cc1ccccc1N=C/C=C1/C=C(c2ccccc2)OC(C)(C)O1	43*	-5	-7	8.3	-5	-0.7	33	-8	-5.3	.
CCc1ccc(C(O)(CC)C(CN2CCOCC2)c2ccccc2)cc1 (configuration not stated)	-11	-11	-13	2.4	14	0.7	-4	2	2.4	-1
O=C(CSc1nc2ccccc2c(=O)n1-c1cccc(C(F)(F)F)c1)NC1CC1	-4	.	.	.	-1	0.3	2	-4	-3.2	21
CCC(=O)NC(Nc1sc2c(c1C(=O)OC)CCN(C)C2)(C(F)(F)F)C(F)(F)F	6	.	.	.	.	-0.3	0	-8	-2.5	-2
O=C(Nc1cccc(Cl)c1)Nc1ccon1	-2	-40	-68	-9.9	-15	-0.5	21	5	-5.5	1
CCNC(=O)C(=O)NCC1OCCCN1S(=O)(=O)c1cccs1 (configuration not stated)	-2	.	.	.	-23	0.5	-2	5	3.3	6
CN(C)c1ccc(/C=N/OC(=O)Nc2ccccc2Cl)cc1	3	7	-16	-3.2	73	0.2	13	-21	-1.2	-7
FC(F)(F)c1cnc(-c2cnc(-c3ccccn3)nc2)c(Cl)c1	-17	-6	1	-5.0	-6	0.0	-6	31	-4.6	7
Cc1cc(Nc2cc(C)on2)n2ncnc2n1	0	11	12	-1.9	-14	-1.6	0	-2	1.1	1
COc1ccc(CCN(C)C(=O)C2CCCN(C3CCN(Cc4ccccc4)CC3)C2)cc1OC (configuration not stated)	-1	6	9	-1.3	1	0.2	28	.	-7.1	-7
Fc1ccc(Nc2nnc(C(F)(F)F)s2)cc1	-3	8	8	1.4	6	0.4	-5	-29	-1.3	4
COc1cc(OC)c2ccc(=O)oc2c1C(CCN1CCCC(C)C1)c1ccc2c(c1)OCO2 (configuration not stated)	12	0	6	-4.3	-24	-0.1	21	-40	-1.6	2
COc1cc(C=O)ccc1OCc1ccccc1Br	7	.	.	.	11	-5.3	-24	-2	-1.8	1
Cn1c(-c2ccc(F)cc2)cnc1NCc1ccc(F)cc1F	-4	4	6	5.0	.	.	1	-25	.	.
COC(=O)C1=C(C)N(CCCC(=O)O)C(=O)NC1c1ccc(C#N)cc1 (configuration not stated)	-11	8	9	0.2	-2	0.0	-9	-19	3.2	-3
CCOC(=O)Cc1csc(NC(=O)c2cc(C)cc(C)c2)n1	14	-25*	-16*	-0.9*	-3	0.2	11	-14	2.3	-1
CCOC(=O)c1c(C2CC2)csc1NC(=O)COC(=O)CCS(=O)(=O)c1ccc(C)cc1	-1	3	5	-2.1	30	-0.3	7	-26	0.3	-9
COc1ccc(OC)c(N=c2oc3cc(O)ccc3cc2C(N)=O)c1	2	.	.	.	-48	0.8	12	-4	-3.0	1
O=C(CCN1C(=O)/C(=C/C=C/c2ccccc2)SC1=S)Nc1cccnc1	0	10	11	6.1	-30	-0.2	37	11	-7.2	19
CN(C1=C(N2CCCCC2)C(=O)c2ccccc2C1=O)c1ccccc1	-2	.	.	.	7	-0.9	40	49	-2.8	.
COc1ccc(S(=O)(=O)c2ccccc2)cc1NC(=O)c1c(F)cccc1F	5	-5	-2	0.5	.	2.2	13	-9	0.7	-3
CC(=O)c1cn(CC(=O)Nc2cccc(C)c2C)c2ccccc12	3	-2	11	1.2	-5	-0.2	4	-18	6.9	20
O=C(c1ccc(Br)o1)N1CCN(C23CC4CC(CC(C4)C2)C3)CC1	-4	8	6	2.3	0	0.0	-5	6	-4.6	0
CCc1c(C)sc(NC(=O)C2CC(c3c(F)cccc3Cl)=NO2)c1C#N (configuration not stated)	0	-23	-21	-3.7	0	1.3	10	32	0.7	4
COc1cccc(C(C(=O)NC2CCCCC2)N(C(=O)c2cccs2)c2ccc3c(c2)OCO3)c1 (configuration not stated)	-6	9	10	1.1	-2	-1.1	29	-11	3.3	-1
COC(=O)Nc1ccc(S(=O)(=O)Nc2cccc3ccccc23)cc1	-12	.	.	.	0	-3.5	-17	5	-4.4	10
Cc1[nH]c2ccccc2c1C(=O)C(=O)NCc1cccs1	2	5	-5	1.5	-6	0.3	8	3	-0.2	1
Cc1nc(NC(=O)c2ccccc2)sc1C	9	14	-9	-11	-1	-6.9	-10	-6	0.9	1
Cc1ccc(N(C(C)C(=O)O)S(=O)(=O)c2cccnc2)cc1 (configuration not stated)	3	13	13	-0.3	-2	-0.9	-12	-6	5.0	-4

The last 2 entries of the section above come first, to join the parts:
SMILES	Beta2AR agonist	Ecoli rRNA inh	Ecoli rRNA inh OD600	Ecoli rRNA inh RFP	ALR H2O2 inh	Bfl-1 A1 inh	T cruzi repl	Calb FLC	LANA-H2A inh	Beta cell apopt
Cc1nc(NC(=O)c2ccccc2)sc1C	9	14	-9	-11	-1	-6.9	-10	-6	0.9	1
Cc1ccc(N(C(C)C(=O)O)S(=O)(=O)c2cccnc2)cc1 (configuration not stated)	3	13	13	-0.3	-2	-0.9	-12	-6	5.0	-4
CC1(C)CC[C@]2(C(=O)O)CC[C@]3(CO)C(=CCC4[C@@]5(C)C[C@H](O)[C@H](O)[C@@](C)(C(=O)O)C5CC[C@]43C)[C@@H]2C1 (some centres not stated)	8	6	-5	6.7	-3	-0.3	.	.	3.1	-3
O=C(O)c1cnc(-c2ccccc2)nc1Sc1ccc(Cl)cc1Cl	-2	.	.	.	5	0.3	-8	106*	0.1	.
N/C(=N\OC(=O)C(c1ccccc1)c1ccccc1)c1cccnc1	1	-54	-72	-26	-1	-0.3	37	-3	-1.5	1
COc1ccc(Br)cc1/C=N/Nc1ccc(Cl)c(C(=O)O)c1	9	1	7	4.2	97*	-0.1	-13	-7	-1.9	-5
CCOC(=O)C1CC(C)=C(C)CC1C(=O)O (configuration not stated)	-14	7	7	0.1	-6	0.4	-3	.	3.0	-5
CCCNC(=S)Nc1ccc2nc(-c3ccccn3)c(-c3ccccn3)nc2c1	-2	.	.	.	-26	0.3	7	?	-2.7	0
CSC(=Nc1ccccc1)Nc1ccccc1	-25	19	8	1.4	1	-0.3	4	3	6.4	.
Cc1csc(=O)n1CC(=O)OCC(=O)Nc1ccccc1C(C)C	-2	1	8	-0.9	-7	-0.4	.	.	2.0	-2
CCCCNC(=S)Nc1ccc2cn[nH]c2c1	1	1	5	1.8	.	1.1	-4	-1	.	-7
Cc1cccc(-c2nsc(SCC(=O)Nc3nccs3)n2)c1	8	.	.	.	.	-0.2	-7	11	-0.7	4
NC(=O)Cc1ccc(C(=O)c2ccc(Cl)cc2Cl)s1	-3	-12	-30	-3.3	0	0.2	17	-25	0.9	-4
O=C(NC1CCCC1)C(c1cccs1)N(C(=O)c1ccno1)c1ccccc1 (configuration not stated)	-2	.	.	.	-11	1.3	-3	-4	-0.1	-5
CC1(C)CC(=O)C(C=NCCCO)=C(O)C1	-8	.	.	.	-2	-0.3	1	-8	2.1	-5
CC(C)(C)OC(=O)C1C(=O)CC(C)(O)C(C(=O)OC(C)(C)C)C1c1cccnc1 (configuration not stated)	1	.	.	.	-17	0.1	-5	1	1.7	0
O=C(NCc1ccc2c(c1)OCO2)C1CCN(S(=O)(=O)c2ccc(Br)s2)CC1	12	.	.	.	-12	0.2	11	-28	-7.1	-5
CC(CCc1ccccc1)C(=O)NO (configuration not stated)	0	.	.	.	11	0.4	15	0	3.4	-3
Cc1ccc(C(OC(=O)c2ccco2)C(=O)NC(C)(C)C)cc1 (configuration not stated)	5	8	1	0.0	-8	0.2	-10	-13	-0.2	4
Cn1nc(C(=O)OCC(=O)Nc2ccc3ccccc3c2)c2ccccc2c1=O	-5	2	5	-2.2	-3	-0.3	-4	-5	-1.3	-3
CC1(c2ccccc2)NC(=O)N(CC(=O)Nc2ccccc2C(=O)N2CCCCC2)C1=O (configuration not stated)	-3	16	15	0.7	-12	1.5	-2	-1	1.9	-1
COc1ccc(C(=O)N(c2ccc(C)cc2)C2C=CS(=O)(=O)C2)cc1OC (configuration not stated)	-1	5	2	0.6	-10	1.1	-1	32	-0.9	-5
COc1ccc(CNC(=O)C2CCN(C(=O)N3CCOc4ccc(C)cc43)CC2)cc1	-1	.	.	.	-2	1.0	.	.	-3.2	-10
COc1ccccc1NC(=O)C1=C(C)NC(=O)NC1c1ccc(C)s1 (configuration not stated)	-5	-2	2	-1.1	-2	0.2	2	16	6.7	7
CCc1ccc(OCCCC(=O)Nc2ccc(S(N)(=O)=O)cc2)cc1	-1	-19	-26	-11	-4	-0.9	-7	0	0.3	-7
Cc1ccc(S(=O)(=O)N2CCN(C(=O)c3ccccc3-c3nc4ccccc4s3)CC2)c(C)c1	5	8	5	0.4	-15	-0.8	-4	38	5.8	-4
COc1ccc(/C(O)=C2/C(=O)C(=O)N(CC3CCCO3)C2c2cccc(O)c2)cc1 (configuration not stated)	-3	.	.	.	-10	0.4	-1	1	-3.1	-13
O=C(COC(=O)Cc1ccccc1F)NNC(=O)c1ccc(Cl)cc1	0	1	9	1.5	1	-0.4	-7	0	0.6	0
O=[N+]([O-])c1ccc(N2CCN(c3ccccc3O)CC2)cc1	1	-3	0	1.5	-7	-1.4	3	-11	1.0	.
CCn1cnc2scc(-c3ccccc3)c2c1=O	-20	.	.	.	.	2.1	-20	-1	-2.0	-7
Cc1cccc(NC(=O)c2cccc(NC(=O)c3ccco3)c2)c1C	-15	-1	-7	-0.3	-2	-0.2	4	-1	-5.4	2
CC1=C(C(=O)Nc2ccccc2C(=O)NC2CCCCC2)SCCO1	11	4	9	-0.4	-5	0.0	2	?	0.1	0
Cc1noc(C)c1S(=O)(=O)N(C)Cc1ccccc1	0	4	1	5.1	3	0.8	-2	?	-1.1	-2
CN(CC(=O)NCCc1ccc(F)cc1)Cc1cccc(Cl)c1	-2	-55	-74	-21	-28	0.4	2	34	-2.4	-13
CCNCCC(=O)N1c2ccccc2Sc2ccc(NC(=O)OCC)cc21	11	.	.	.	-12	0.6	19	-2	3.3	3
COc1cc(CN2CCN(C3CCC3)CC2CCO)cc(OC)c1 (configuration not stated)	-4	8	2	-4.8	.	2.2	-10	-7	-6.4	-9
N#Cc1c(NC(=O)CSc2ncc(-c3ccccc3)n2CC2CCCO2)sc2c1CCCC2 (configuration not stated)	-5	.	.	.	6	0.6	29	10	-0.2	7
O=C(CN1N=C(c2ccc(Cl)cc2)CCC1=O)NCc1cccnc1	-8	.	.	.	.	0.1	-10	3	-4.4	-2
NNC(=S)NCc1ccco1	4	3	5	5.0	6	-0.1	-25	-1	-2.5	2
COc1ccc(NC(=O)Cn2c(-c3ccc(OC)cc3)cn(-c3ccc(C)cc3)c2=O)cc1	0	.	.	.	-7	-0.2	9	0	-2.1	2
